Screens from PubChem.
VDR inhibitor = Inhibitors of the vitamin D receptor (VDR): qHTS | Vitamin D3 receptor (Homo sapiens), P11473 | VDR-SRC2-3 peptide fluorescence polarization, 2 h | Potency, µM, for inactives: max response, negative = inhibition, usual class: inhibitors | 400,000 tested, 0.93% active; active means well fitted inhibition curve with a large enough effect; inconclusive means small, poorly fitted or top-dose-only effect, or another doubt; inactive means no such curve, though single readings can be large or run the other way; further: series mostly up to about 120 µM
Target sequence (P11473 whole entry, looked up): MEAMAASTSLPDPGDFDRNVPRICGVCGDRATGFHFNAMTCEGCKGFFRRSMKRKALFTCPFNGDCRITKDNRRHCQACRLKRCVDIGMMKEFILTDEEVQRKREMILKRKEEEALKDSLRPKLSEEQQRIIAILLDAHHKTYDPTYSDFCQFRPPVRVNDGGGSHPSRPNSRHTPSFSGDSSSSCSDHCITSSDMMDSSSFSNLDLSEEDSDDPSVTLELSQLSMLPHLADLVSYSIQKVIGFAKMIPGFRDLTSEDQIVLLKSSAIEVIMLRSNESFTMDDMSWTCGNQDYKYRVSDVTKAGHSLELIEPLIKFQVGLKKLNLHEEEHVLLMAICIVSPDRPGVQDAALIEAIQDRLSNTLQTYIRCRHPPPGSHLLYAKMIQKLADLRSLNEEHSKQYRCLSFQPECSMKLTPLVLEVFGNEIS
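VDR–SRC2-3 interaction, FP format. Cmpds 23 nl via pintool, brief spin, 2 h ambient incubation.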
* marks the source's active call; other numbers are inactive results; u = inconclusive; [ ] = another dose, or the depositor's remark. On the % scale 0 is the no-effect control and ±100 the full control effect; potency means the concentration at half of the fitted maximal effect. An excerpt; rates above refer to the full screens.

SMILES | VDR inhibitor
CCc1c(C)sc2c1CCN(C(=O)Nc1ccccc1C(F)(F)F)C2c1ccccc1 (centres undefined) | -5%
COc1ccc(NC(=O)N2CC[C@@]3(CCCN(C(C)=O)C3)C2)cc1 | -4%
COc1ccccc1NC(=O)CN1C(=O)COc2ccc(S(=O)(=O)N3CCC(C)CC3)cc21 | 11%
CCN(c1ccccc1)c1ncnc2c1cnn2-c1ccc(C)cc1C | 3%
COc1ccc(S(=O)(=O)N2CCOC2CNC(=O)C(=O)NCc2ccc3c(c2)OCO3)cc1OC (centres undefined) | -1%
COc1ccc(OCCSc2nnc(CCNC(=O)c3ccc(OC)cc3)n2C)cc1 | -3%
COc1ccccc1/C=C/C=N\N1CCN(Cc2ccccc2Cl)CC1 | 7%
CC/C(=N\NC(=O)c1ccc2c(c1)OCO2)C12CC3CC(CC(C3)C1)C2 | -3%
O=C(NCc1ccc(F)cc1)c1nc(-c2cccs2)no1 | -3%
Cc1ccc(NC(=O)CCN2C(=O)c3ccncc3C2=O)cc1 | -7%
NS(=O)(=O)c1cccc(NC(=O)COc2ncnc3c2cnn3-c2ccccc2)c1 | 4%
COc1ccccc1CNS(=O)(=O)c1ccc2c(c1)NC(=O)CC(=O)N2 | -9%
Cc1ccc(C)c(N2CCN(S(=O)(=O)c3cc(C(=O)Nc4ccc(Oc5ccccc5)cc4)ccc3F)CC2)c1 | 16%
CN=C1SC(CC(=O)Nc2cccc(C(F)(F)F)c2)C(=O)N1C (centres undefined) | 10%
Cc1csc2nc(CNC(=O)CCC(=O)O)cn12 | -27%
CCc1cc(=O)oc2cc(OC(C)C(=O)NCC(O)c3ccccc3)c(Cl)cc12 (centres undefined) | -5%
CC(=O)O/N=C(/c1nonc1N)N(C)C | 8%
O=C(c1ccncc1)N1CCC2(CC1)CCN(c1ccc(-c3ccccc3)cc1)CC2 | 0%
COC(=O)NN1C(=O)C(c2ccccc2)=C(c2ccc(Cl)cc2)C1=O | -4%
Cc1ccc(S(=O)(=O)NCc2ccccc2)cc1C(=O)N1CCCCC1 | 8%
Cc1cc(NS(=O)(=O)c2ccc(NC(=O)c3cc(-c4ccccc4Cl)nc4ccccc34)cc2)no1 | 7%
CCOC(=O)c1ccc(NC(=S)N2CCCC(C(=O)N3CCCC3)C2)cc1 (centres undefined) | -18%
COc1ccc(/C=C/C(=O)OCC(=O)NC2CCCC2)cc1OC | -10%
CCOc1nsc(OCC)n1 | -18%
COC(=O)C1=C(C)NC(C)=C(C(=O)OC)C1C(=O)OCc1nnc(-c2ccccc2Cl)o1 | 4%
Cc1ccc(NC(=S)N2CCC(c3nc4ccccc4s3)CC2)cc1C | -13%
COC(=O)N/N=C/c1cc(C)n(-c2ccc(Br)cc2)c1C | -9%
Cc1cccc(CN2C(=O)N/C(=C/c3cc(C)n(-c4ccccn4)c3C)C2=O)c1 | -6%
O=C(CCc1nnc2n(Cc3ccc(F)cc3)c(=O)c3ccccc3n12)N1CCN(c2ccccn2)CC1 | -5%
CC(C)(C)NC(=O)NC(=O)COC(=O)c1ccco1 | 1%

Laid out differently: results already given
> Cc1ccc(NC(=S)N2CCC(c3nc4ccccc4s3)CC2)cc1C
  VDR inhibitor: -13%

> O=C(c1ccncc1)N1CCC2(CC1)CCN(c1ccc(-c3ccccc3)cc1)CC2
  VDR inhibitor: 0%

> COc1ccc(OCCSc2nnc(CCNC(=O)c3ccc(OC)cc3)n2C)cc1
  VDR inhibitor: -3%

> CCOC(=O)c1ccc(NC(=S)N2CCCC(C(=O)N3CCCC3)C2)cc1 (centres undefined)
  VDR inhibitor: -18%

Going on with the list:
SMILES | VDR inhibitor
O=C(Cn1cc([N+](=O)[O-])cn1)NCCc1c[nH]c2ccccc12 | -9%
Nc1ccc(C(=O)OCc2ccncc2)cc1[N+](=O)[O-] | -11%
CCC(C)N(CC(=O)NCc1ccc(OC)cc1)C(=O)c1csnn1 (centres undefined) | 1%
COc1cc2cc(C(c3nnnn3C3CCCC3)N3CCc4ccccc43)c(=O)[nH]c2cc1OC (centres undefined) | -6%
CNC(=O)C1CCC(Cn2c(=O)c3sccc3n(Cc3ccccc3)c2=O)CC1 (centres undefined) | 1%
COc1ccc(OC)c(/C=C/c2c([N+](=O)[O-])c(=O)n(C)c(=O)n2C)c1 | 0%
CCOC(=O)C1=C(c2ccccc2)NC(N)=NC1c1ccc(OCc2ccc(Cl)cc2)c(OC)c1 (centres undefined) | -22%
CCC(Sc1nc2c(c(=O)n1CC)SC(C)C2)C(=O)OC (centres undefined) | -5%
Cc1cc(C(=O)COC(=O)C(C)NC(N)=O)c(C)n1Cc1ccco1 (centres undefined) | -1%
COc1ccc(CC(=O)Nc2nc(-c3cccc([N+](=O)[O-])c3)cs2)cc1 | 2%
O=C(OCc1nnc(-c2ccccc2Br)o1)c1ccco1 | -10%
COc1cccc(OCC(=O)N(Cc2nc(-c3ccc(Cl)cc3)no2)C(C)C)c1 | 14%
O=C(N/N=C/c1ccccn1)c1cc(-c2ccc(Cl)cc2)nc2ccccc12 | -25%
COc1ccccc1C(CNC(=O)c1ccc(NS(=O)(=O)c2ccc(F)c(C)c2)cc1)N1CCCC1 (centres undefined) | -11%
O=S(=O)(NCc1ccco1)c1cccc(S(=O)(=O)N2CCOCC2)c1 | u
CCCCc1nc2sc3c(=O)[nH]c(=S)[nH]c3c2c2c1CCC2 | 13%
CC(C)C(=O)Nc1ccc(C(=O)NN2C(=O)c3ccccc3C2=O)cc1 | -4%
CCOC(=O)CCCNS(=O)(=O)c1c(C)ccc2nsnc12 | -9%
Cc1cc(C)cc(NC(=O)Cn2c(-c3cncs3)nc3ccccc32)c1 | -15%
COc1cc(NC(=O)c2cc3nc(-c4ccccc4)cc(-c4ccccc4)n3n2)c(OC)cc1Cl | -8%
CCOc1cc(/C=N/O)ccc1OCc1ccc(C)cc1 | -9%
Cc1cccc(NC(=O)CN2C(=O)C3(SCC(=O)N3c3ccccc3)c3ccccc32)c1 (centres undefined) | 8%
Cn1cnc([N+](=O)[O-])c1Oc1ccccc1 | 0%
CCCCNC(=S)NNC(=O)c1cccnc1 | -4%
Cc1ccc(S(=O)(=O)N(c2ccccc2)C2CCS(=O)(=O)C2)cc1 (centres undefined) | -4%
O=C1C(Cl)=C(NCc2cccnc2)C(=O)c2ccccc21 | -8%
Cc1nnsc1C(=O)NC1CCCc2c1cnn2-c1ccccc1F (centres undefined) | -15%
C(#Cc1ccc(C#CCN2CCOCC2)cc1)CN1CCOCC1 | -21%
CCN1C(=O)[C@@H]2C(C(=O)c3cnccn3)=NN[C@@H]2C1=O | 3%
Cc1cccc(OCC(=O)N2CCN(C(=O)c3cccs3)CC2)c1 | 28%
C[C@@H](N)C(=O)N[C@H]1CCC2C3CC=C4C[C@@H](O)CC[C@]4(C)C3CC[C@@]21C (some centres undefined) | 7%
CCn1c(NC(=O)C(C)C)c(-c2ccccc2)c(=O)c2ccccc21 | 9%
OCC[C@H]1C[C@@H](O)[C@H](O)[C@@]2(Cc3ccccc3CCO2)O1 | -16%
CC(=O)Nc1ccccc1OCC(=O)NCC(F)(F)F | -14%
O=C(Cn1cc(SCc2cccc(Cl)c2)c2ccccc21)N1CCCCC1 | 14%
Cc1ccc(NC(=O)Cc2ccc(Cl)cc2)cc1S(=O)(=O)N1CCCCCC1 | 10%
COc1ccc(CC2(CO)CCN(S(=O)(=O)c3c(C)nn(C)c3C)CC2)cc1 | 7%
O=[N+]([O-])c1ccc(S(=O)(=O)N2CCn3cccc3C2c2ccc(Br)cc2)cc1 (centres undefined) | -5%
CC(C)CN(CC(C)C)C(=O)c1cccc(S(=O)(=O)N2CCc3ccccc32)c1 | 31%[activator]
O=C(NCc1cccnc1)C(=O)N/N=C/c1ccc([N+](=O)[O-])cc1 | 19%
COc1ccc(NC(=S)N2CCc3ccccc3C2)cc1 | 17%
O=C(c1ccc([N+](=O)[O-])cc1)N(C1=NCCCCS1)c1ccccc1 | 13%
Cc1cccn2c(=O)c3cc(C(=O)N4CCCCC4)sc3nc12 | -12%
CCn1c(=O)c(C(=O)NCc2ccccc2Cl)c(O)c2ccccc21 | 2%
C=C1CCN(C(CC(C)C)C(=O)NCc2cc(OC)c(OC)c(OC)c2)S(=O)(=O)c2ccccc21 (centres undefined) | 3%
COc1ccccc1/C=N/n1nnnc1N | -11%
CC(CCc1ccccc1)NC(=O)CC(C)c1ccccc1 (centres undefined) | -13%
CC(C)c1cc(C(N)=O)c(NC(=O)c2cccc(COc3ccc(Cl)cc3)c2)s1 | 12%
O=C(Nc1cccc(Cl)c1)N1CCc2ccccc2C1 | 20%
CCN(CC)S(=O)(=O)c1ccc(N2CCOCC2)c(NC(=O)COc2ccc(Cl)cc2)c1 | 19%
Cc1cc(/C=C2/C(=N)N3C(=NC2=O)SN=C3S(C)(=O)=O)c(C)n1-c1ccc(F)cc1 | -3%
CCc1ccc(NC(=O)CCn2cnc3ccccc3c2=O)cc1 | 3%
COC(=O)[C@H]1[C@@H](C)N(Cc2ccccc2)C(=O)N[C@H]1c1cccc(C(F)(F)F)c1 | -17%
COc1ccc(CNC(=O)COC(=O)C2CCN(S(=O)(=O)c3ccccc3C(F)(F)F)CC2)cc1 | -18%
CNS(=O)(=O)c1ccc(CNC[C@H]2O[C@@H](n3cnc(C(N)=O)n3)[C@H](O)[C@@H]2O)cc1 | -3%
CCc1nnc(NC(=O)CSc2nnnn2-c2cccc(C(=O)OC)c2)s1 | 11%
COc1ccc(S(=O)(=O)N2CCOCC2)cc1NC(=O)CSc1ncnc2ccccc12 | -3%
CC1CCCCC12NC(=O)N(CC(=O)N1CCN(S(=O)(=O)c3ccc4c(c3)CCC4)CC1)C2=O (centres undefined) | -1%
C=CCn1c(SCC(=O)NC2CCCC2)nc2c([nH]c3ccccc32)c1=O | 13%
Cc1cc(C)cc(NC(=S)NC2CC3CCCC(C2)N3C2CC2)c1 (centres undefined) | 12%

Additional compounds
SMILES | VDR inhibitor
CCOc1ccc(NC(=O)CN(C)c2nnnn2-c2ccccc2)cc1OCC | -5%
COc1ccc(Oc2nc3ccccc3n3cccc23)cc1 | -16%
COCCc1nc2ccc(C(=O)NCc3cccc(-n4cccn4)c3)cc2o1 | 22%
Cc1cc(=O)[nH]c(Sc2c(-c3ccccc3)c3ccccc3[nH]c2=O)n1 | 13%
Cc1ccc2oc(-c3ccc(Cl)c(NC(=O)c4ccc(-c5ccccc5[N+](=O)[O-])o4)c3)nc2c1 | -12%
CCN(Cc1ccccc1)C(=O)COC(=O)CNC(=O)c1ccc(C)s1 | -26%
Cc1cc(N2CCN(c3cccc(C(F)(F)F)c3)CC2)n2nc(-c3ccccc3C)nc2n1 | 5%
COc1ccccc1OCC(=O)Nc1ccc(S(=O)(=O)Nc2nccs2)cc1 | -9%
O=C(NCCCO)C(=O)NCC(c1ccc2c(c1)OCO2)N1CCOCC1 (centres undefined) | -2%
O=C(CCCSc1nc2ccccc2c(=O)[nH]1)c1ccc(F)cc1 | -13%
O=C(CSc1nnc(-c2ccccc2)n1-c1ccc(Cl)cc1)N/N=C/c1ccco1 | 0%
O=C(N/N=C/c1ccc2c(c1)OCO2)c1cc(-c2ccncc2)nc2ccccc12 | -13%
CCN1CCCC1CNC(=O)C(=O)Nc1ccccc1OC (centres undefined) | -9%
O=C(O)c1oc2ccccc2c1CSc1ccccn1 | -13%
Cc1cc(=O)oc2cc(OCC(=O)OC(C)C(=O)Nc3ccc(S(N)(=O)=O)cc3)ccc12 (centres undefined) | 3%
COc1ccc(NC(=O)CSc2nc3c(oc4ccccc43)c(=O)n2-c2ccccc2)cc1OC | -27%
COc1cc(C(=O)NN2C(=O)NC3(CCC(C)CC3)C2=O)ccc1OC(F)F (centres undefined) | -2%
Cc1nc(Sc2cccn2C)c(C(F)(F)F)c(=O)[nH]1 | -15%
Cc1cc(Cl)ccc1OCC(=O)N1CCC(c2nc3ccccc3s2)CC1 | 12%
CSc1nc(N2CCOCC2)c2ccccc2n1 | -10%
NC(=S)N/N=C/c1ccc(C23CC4CC(CC(C4)C2)C3)cc1 | -12%
O=C(NNc1c([N+](=O)[O-])cc(C(F)(F)F)cc1[N+](=O)[O-])c1ccco1 | -15%
COc1ccc(S(=O)(=O)N2CCOCC2)cc1C(=O)Nc1cc(C)on1 | 1%
CCc1nnc(NC(=O)C2CCC2)s1 | -9%
Cc1ccc(S(=O)(=O)NN2C(=O)/C(=C/c3cccs3)SC2=S)cc1 | -15%
O=C(O)c1ccc(Nc2nc3ccccc3nc2NS(=O)(=O)c2ccc(F)cc2)cc1 | -12%
NC(=O)c1cc(S(=O)(=O)NCc2ccc(F)cc2)cs1 | -3%
CSCCC(NC(=O)c1ccccc1Cl)C(=O)NCC(c1ccco1)N1CCCCC1 (centres undefined) | -12%
CC1C(=O)N2CCCc3cc(NC(=O)C(=O)NCc4ccc5c(c4)OCO5)cc1c32 (centres undefined) | -3%
COCCN1CCN(C(=O)C2CCC(=O)N(Cc3ccc(Cl)cc3)C2)CC1 (centres undefined) | -3%
COc1ccccc1CCNC(=O)Cc1c(C)c2ccc(O)cc2oc1=O | 1%

Another view of 2 compounds above:
O=C(NNc1c([N+](=O)[O-])cc(C(F)(F)F)cc1[N+](=O)[O-])c1ccco1
- VDR inhibitor: -15%
COc1ccc(S(=O)(=O)N2CCOCC2)cc1C(=O)Nc1cc(C)on1
- VDR inhibitor: 1%
